Bioassay records from PubChem.
GIRK2 act – activators of human GIRK2 potassium channels; G protein-activated inward rectifier potassium channel 2 (Homo sapiens), P48051; HEK293-GIRK2 thallium flux, Thallos fluorescence; calls only for hits at 25 µM; hit rate 0.05% among 63,000; AID 1259325, 2017;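 active means among the strongest 0.2% of first-round signals and kept after retests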;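 further: first round at about 10 µM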
Target sequence (P48051 whole entry, looked up): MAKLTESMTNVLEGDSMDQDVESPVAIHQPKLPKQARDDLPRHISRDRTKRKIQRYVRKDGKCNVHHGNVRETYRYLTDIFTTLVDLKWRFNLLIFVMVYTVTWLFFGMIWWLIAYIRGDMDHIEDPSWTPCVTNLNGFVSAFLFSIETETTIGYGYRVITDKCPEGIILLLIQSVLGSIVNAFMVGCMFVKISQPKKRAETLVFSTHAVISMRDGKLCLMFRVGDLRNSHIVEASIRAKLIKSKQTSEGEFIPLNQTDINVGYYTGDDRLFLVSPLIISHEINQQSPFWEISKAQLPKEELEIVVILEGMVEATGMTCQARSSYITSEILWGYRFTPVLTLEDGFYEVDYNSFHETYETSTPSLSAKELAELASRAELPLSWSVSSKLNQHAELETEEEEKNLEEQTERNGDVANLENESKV
Calls only. Only part of the results is shown (hit frequency here may not be typical).

The opening 2 entries as a preview:
Results for COc1ccc(S(=O)(=O)C2CCN(C(=O)CN3C(=O)CCC3=O)CC2)cc1 ?
GIRK2 act: inactive

What do the screens show for `Cc1cc(NS(=O)(=O)c2ccc(NC(=O)c3nc4ccccc4s3)cc2)no1`?
GIRK2 act: inactive

Results, previewed entries included:
Results for COc1ccc(S(=O)(=O)C2CCN(C(=O)CN3C(=O)CCC3=O)CC2)cc1 ?
GIRK2 act: inactive

What do the screens show for `Cc1cc(NS(=O)(=O)c2ccc(NC(=O)c3nc4ccccc4s3)cc2)no1`?
GIRK2 act: inactive

Results for CC(C)NC(=O)CCCCn1c(=O)c2ccccc2n(CC(=O)NCc2ccccc2)c1=O ?
GIRK2 act: inactive

How did CC(=O)COc1ccc2c(c1)O/C(=C\c1ccccc1Br)C2=O do in these assays?
GIRK2 act: inactive

How did Cc1nnsc1C(=O)N1CCN(CCNC(=O)c2cccs2)CC1 do in these assays?
GIRK2 act: inactive

How did CCOC(=O)Cn1cc(-c2nc(-c3ccccc3F)no2)ccc1=O do in these assays?
GIRK2 act: inactive

Results for Cc1oc(-c2cccc(Cl)c2)nc1CSc1nc2ccccc2n2c(C)nnc12 ?
GIRK2 act: inactive

What do the screens show for `O=C(c1cc(=O)c(OCc2ccc(F)cc2)c[nH]1)N1CCN(Cc2ccc3c(c2)OCO3)CC1`?
GIRK2 act: inactive

How did COc1cc(NC(=O)C2CCN(c3ccc(-c4ccco4)nn3)CC2)ncn1 do in these assays?
GIRK2 act: inactive

Results for CCc1cccc(OCC2Cn3c(nc4c3c(=O)[nH]c(=O)n4C)O2)c1 (configuration not stated) ?
GIRK2 act: inactive

Results for CCN(C(=O)c1ccc(F)cc1)C1C2CC3CC(C2)CC1C3 (configuration not stated) ?
GIRK2 act: inactive

What do the screens show for `CN(C)C(CNC(=O)C(=O)Nc1ccc(OC(F)(F)F)cc1)c1cn(C)c2ccccc12` (configuration not stated)?
GIRK2 act: inactive

Results for O=C1CCCC(=O)N1CCS(=O)(=O)N1CCC(CSCc2ccco2)CC1 ?
GIRK2 act: inactive

Results for O=C(CCS(=O)(=O)Cc1ccccc1)N(Cc1ccccn1)c1nc2c(Cl)cccc2s1 ?
GIRK2 act: inactive

Results for COc1ccc(C(=O)Nc2sc3c(c2-c2nc4ccccc4s2)CCCC3)cc1 ?
GIRK2 act: inactive

Results for CC1=NNc2nc3c(c(=O)n(CCN4CCOCC4)c(=O)n3C)n2C1 ?
GIRK2 act: inactive

Results for Cc1cc(C(O)CCNS(=O)(=O)c2ccc(Br)s2)c(C)o1 (configuration not stated) ?
GIRK2 act: inactive

What do the screens show for `COc1ccc(CCNC(=O)c2cc(-c3ccc(F)cc3)c[nH]2)cc1`?
GIRK2 act: inactive

What do the screens show for `O=C(NCC1CCN(C(=O)c2ccoc2)CC1)c1c(F)cccc1Cl`?
GIRK2 act: inactive

How did COc1ccc(NC(=O)c2cn(-c3ccc(C#N)cc3)cn2)cc1OC do in these assays?
GIRK2 act: inactive

How did O=C(Cn1cccc(-c2nc(-c3ccccc3)no2)c1=O)Nc1ccc(Cl)c(C(F)(F)F)c1 do in these assays?
GIRK2 act: inactive

What do the screens show for `COc1ccccc1CNC(=O)Cn1cccc(-c2nc(-c3ccc(Br)cc3)no2)c1=O`?
GIRK2 act: inactive

Results for O=S(=O)(Cc1ccc(C(F)(F)F)cc1)NCC1(c2cccs2)CC1 ?
GIRK2 act: inactive

Results for O=C(Nc1nc2c(s1)CCCC2)c1coc(NC(=O)c2ccco2)n1 ?
GIRK2 act: inactive

Results for Cc1[nH]c(=O)[nH]c(=O)c1CCc1nnc(SCC(=O)Nc2ccc3c(c2)OCCO3)o1 ?
GIRK2 act: inactive

How did CN(C)c1ccc(C(=S)N2CCN(C(=O)Nc3cccc(Cl)c3)CC2)cc1 do in these assays?
GIRK2 act: inactive

How did CC(C)(C)NC(=O)N1CCC(CNC(=O)C(=O)Nc2cc3c4c(c2)CCC(=O)N4CCC3)CC1 do in these assays?
GIRK2 act: inactive

How did COc1cc(NC(=O)Cn2nc3c(Oc4ccccc4)nccn3c2=O)cc(OC)c1 do in these assays?
GIRK2 act: inactive

What do the screens show for `CCc1ccc(S(=O)(=O)c2c[nH]c3ccc(F)cc3c2=O)cc1`?
GIRK2 act: inactive

Results for Cn1c(=O)n(CC(=O)OCc2ccccc2)c(=O)c2c1nc1oc(-c3ccccc3)cn12 ?
GIRK2 act: inactive

What do the screens show for `Cc1nc(-c2ccco2)sc1CNC(=O)NCCOc1ccccc1`?
GIRK2 act: inactive

How did O=C(Cc1ccc(F)cc1)N1CCC(COCc2ccccc2)CC1 do in these assays?
GIRK2 act: inactive

Results for O=C(COc1ccc(Cl)cc1)NCCN1CCN(c2ccccc2)CC1 ?
GIRK2 act: inactive

How did O=C(NCCc1ccccc1)C(=O)NCCC(O)C1CC1 (configuration not stated) do in these assays?
GIRK2 act: inactive

Results for Cc1cc(NC(=O)Cn2c(=O)n(CCC(=O)NCc3ccco3)c(=O)c3ccccc32)n[nH]1 ?
GIRK2 act: inactive

What do the screens show for `Cc1csc(SCC2CCN(C(=O)C3CC(=O)N(c4ccc(F)cc4)C3)CC2)n1` (configuration not stated)?
GIRK2 act: inactive

How did COC(=O)COc1ccc2c(c1)O/C(=C\c1ccccc1Br)C2=O do in these assays?
GIRK2 act: inactive

What do the screens show for `O=C(Cn1cc(S(=O)(=O)N2CCCCC2)ccc1=O)Nc1ccccc1F`?
GIRK2 act: inactive

How did Cc1ccc(C(=O)COC(=O)c2ccc3ccccc3n2)c(C)c1 do in these assays?
GIRK2 act: inactive

How did Cc1cc(NC(=O)CSc2nnc(N3CCN(c4ccc(F)cc4)CC3)s2)no1 do in these assays?
GIRK2 act: inactive

Results for O=C(c1nc2ccccc2s1)N1CC(c2nc3ccccc3[nH]2)C1 ?
GIRK2 act: inactive

What do the screens show for `O=c1c(-c2nc(-c3ccsc3)no2)cccn1Cc1noc(-c2ccccc2F)n1`?
GIRK2 act: inactive

What do the screens show for `Cc1nn(C)cc1S(=O)(=O)NCCc1c[nH]c2ccccc12`?
GIRK2 act: inactive

How did CN(CC#CCNC(=O)C12CC3CC(CC(C3)C1)C2)Cc1ccccc1 do in these assays?
GIRK2 act: inactive

What do the screens show for `Cc1cc(CCNC(=O)Nc2ccc(F)cc2)on1`?
GIRK2 act: inactive

Results for Cn1c(NC(=O)c2ccco2)c(-c2cccs2)c(=O)c2ccccc21 ?
GIRK2 act: inactive

What do the screens show for `COc1ccc(NC(=O)c2ccc(S(=O)(=O)N3CCCC3)cc2)cc1`?
GIRK2 act: inactive

What do the screens show for `CN(C)CCOc1ccc(/C(=C(/CCCl)c2ccccc2)c2ccccc2)cc1`?
GIRK2 act: inactive

What do the screens show for `CCNC(=O)N1CCC(COC)CC1`?
GIRK2 act: inactive

How did C=CCSc1nnc(NC(=O)c2ccc(Cl)c(S(=O)(=O)N3CCCC3)c2)s1 do in these assays?
GIRK2 act: inactive

What do the screens show for `O=C(Nc1nonc1-c1ccc(Cl)cc1)c1ccccc1Cl`?
GIRK2 act: inactive

What do the screens show for `O=S1(=O)CCC(CNS(=O)(=O)c2cc(F)ccc2F)C1` (configuration not stated)?
GIRK2 act: inactive

What do the screens show for `Cc1ccc2c(c1)NC(=O)c1cc(NS(=O)(=O)C3CCCCC3)ccc1O2`?
GIRK2 act: inactive

Results for COc1cc(/C=C(\C#N)c2nc3ccccc3o2)ccc1O ?
GIRK2 act: inactive

What do the screens show for `Cc1ccccc1NC(=O)Cn1cc(S(=O)(=O)N2CCOCC2)ccc1=O`?
GIRK2 act: inactive

Results for O=C(NCCCS(=O)(=O)N1CCc2ccccc2C1)c1ccc(Cl)cc1Cl ?
GIRK2 act: inactive

Results for COc1ccc(OC)c(-c2cc(C(=O)Nc3ccc(CC(=O)NC4CC4)cc3)n(C)n2)c1 ?
GIRK2 act: inactive

What do the screens show for `CCc1cccc(NC(=O)Cn2cnc3c([nH]c4ccccc43)c2=O)c1`?
GIRK2 act: inactive

How did O=C(Nc1ccccc1Cl)NC1(c2nc(-c3ccccc3)no2)CCCCC1 do in these assays?
GIRK2 act: inactive

How did O=C(NCC(c1cccs1)S(=O)(=O)c1ccc(F)cc1)C1(c2cccs2)CCCC1 (configuration not stated) do in these assays?
GIRK2 act: inactive

An excerpt from above in order of formula weight, ascending.
How did Cc1ccc(C(=O)COC(=O)c2ccc3ccccc3n2)c(C)c1 do in these assays?
GIRK2 act: inactive

What do the screens show for `COc1ccc(CCNC(=O)c2cc(-c3ccc(F)cc3)c[nH]2)cc1`?
GIRK2 act: inactive

What do the screens show for `Cc1nc(-c2ccco2)sc1CNC(=O)NCCOc1ccccc1`?
GIRK2 act: inactive

New compounds follow
What do the screens show for `N#C/C(=C\Nc1ccc(C(N)=O)cc1)c1nc(C2CC2)cs1`?
GIRK2 act: inactive

Results for O=C(Nc1nccs1)c1ccc(S(=O)(=O)N(Cc2ccco2)Cc2cccs2)o1 ?
GIRK2 act: inactive

Results for CS(=O)(=O)N1CCN(CCNC(=O)Nc2cccc(C(F)(F)F)c2)CC1 ?
GIRK2 act: inactive

What do the screens show for `CCCc1cc(=O)[nH]c(-n2nc(C3CC3)cc2NC(=O)c2cc(-c3ccco3)on2)n1`?
GIRK2 act: inactive

How did CCCn1c(NC(C)CC)nc2c1c(=O)[nH]c(=O)n2C (configuration not stated) do in these assays?
GIRK2 act: inactive

What do the screens show for `COc1cc(-c2nnc(NC(=O)c3cccs3)o2)cc(OC)c1OC`?
GIRK2 act: inactive

What do the screens show for `Cc1cccc(N2CCN(S(=O)(=O)c3ccc(C)c(C)c3C)CC2)c1C`?
GIRK2 act: inactive

How did COc1ccccc1OCC#CCNC(=O)CNC(=O)c1ccccc1 do in these assays?
GIRK2 act: inactive

Results for Nc1c(-c2ccccn2)nsc1C(=O)N1CCN(c2ccccc2)CC1 ?
GIRK2 act: inactive

How did Cc1ccc(NC(=O)C(=O)NCC2CCCO2)cc1Cl (configuration not stated) do in these assays?
GIRK2 act: inactive

What do the screens show for `COc1ccc(NC(=O)Cn2c(=O)n(CCCCC(=O)NC(C)C)c(=O)c3ccccc32)cc1OC`?
GIRK2 act: inactive

How did COc1ccc2c(CN3CCN(c4cccc(Cl)c4)CC3)cc(=O)oc2c1 do in these assays?
GIRK2 act: inactive

Results for CCC1CCCCN1C(=O)COc1cccc2c1CCN(Cc1cccc(C)c1)C2=O (configuration not stated) ?
GIRK2 act: inactive

What do the screens show for `CC1=NN(CCN(C)Cc2ccccc2)c2nc3c(c(=O)n(C)c(=O)n3C)n2C1`?
GIRK2 act: inactive

What do the screens show for `O=C1NC(=N[C@@H](CO)Cc2ccccc2)S/C1=C\c1ccc2ncccc2c1`?
GIRK2 act: inactive

Results for CCOC(=O)NCC#CCOc1ccccc1C(N)=O ?
GIRK2 act: inactive

What do the screens show for `CC12CC34CC(O)C5C(CO)(CO)CC(=O)CC5(C)C3CC1C2C4` (configuration not stated)?
GIRK2 act: inactive

Results for O=S(=O)(NCc1ccc(C(O)c2cccs2)s1)c1cccc(Cl)c1 (configuration not stated) ?
GIRK2 act: inactive

What do the screens show for `CSc1ccc(CNC(=O)Cn2cnc3c([nH]c4ccccc43)c2=O)cc1`?
GIRK2 act: inactive

Results for O=C(NCC(=O)N1CCC2(CCc3ccccc3O2)CC1)c1ccccc1 ?
GIRK2 act: inactive

How did CN(Cc1ccccc1)c1nc2c(c(=O)n(Cc3ccccc3Cl)c(=O)n2C)n1C do in these assays?
GIRK2 act: inactive

Results for COc1cccc(CCNC(=O)c2cc(=O)c(OCc3ccccc3)co2)c1 ?
GIRK2 act: inactive

Results for CC(C)C(=O)Nc1ccc(N2CCCS2(=O)=O)cc1 ?
GIRK2 act: inactive

How did Cc1cc(=O)n(CC(=O)Nc2ccc(F)cc2C)c(N)n1 do in these assays?
GIRK2 act: inactive

What do the screens show for `CC(=O)NS(=O)(=O)c1ccc(NC(=O)CCn2c(=O)oc3ccc(Cl)cc32)cc1`?
GIRK2 act: inactive

What do the screens show for `O=C(CSCc1ccccc1)NCc1cnn2ccccc12`?
GIRK2 act: inactive

What do the screens show for `O=C(Cn1nc2c(c1NC(=O)c1cc3ccccc3o1)CSC2)NCCc1ccccc1`?
GIRK2 act: inactive

Results for COc1ccc(C2CC(c3ccco3)=NN2C(=S)Nc2ccccc2)cc1OC (configuration not stated) ?
GIRK2 act: inactive

How did COc1ccc(OCc2noc(CNC(=O)c3oc4cc(OC)ccc4c3C)n2)cc1 do in these assays?
GIRK2 act: inactive

Results for Cc1ccc(Nc2n[nH]nc2C(N)=O)cc1 ?
GIRK2 act: inactive

Results for COc1ccc(Cl)cc1C(=O)N1CCN(Cc2nc(C)cs2)CC1 ?
GIRK2 act: inactive

What do the screens show for `N#Cc1nc(-c2ccc(COc3ccc(Cl)cc3)o2)oc1N1CCOCC1`?
GIRK2 act: inactive

How did CC(C)c1ccc(OCC(O)CN2CCCCC2C)cc1 (configuration not stated) do in these assays?
GIRK2 act: inactive

How did Cn1cc(C2=C(c3cn(CCCO)c4ccccc34)C(=O)NC2=O)c2ccccc21 do in these assays?
GIRK2 act: inactive

How did COCCN1CCC(NC(=O)c2ccccc2C)CC1 do in these assays?
GIRK2 act: inactive

Results for CCc1cccc(OCC(O)Cn2c(NCCCOC(C)C)nc3c2c(=O)n(C)c(=O)n3C)c1 (configuration not stated) ?
GIRK2 act: inactive

What do the screens show for `O=C(NCCc1cccs1)c1ccc2c(=O)n(-c3ccc(F)cc3)c(N3CCCC3)nc2c1`?
GIRK2 act: inactive

What do the screens show for `COc1cccc(NC(=O)Nc2ccc3c(c2)CCCN3S(=O)(=O)c2ccccc2)c1OC`?
GIRK2 act: inactive

4 records drawn at random from those above:
How did COc1ccc(OCc2noc(CNC(=O)c3oc4cc(OC)ccc4c3C)n2)cc1 do in these assays?
GIRK2 act: inactive

What do the screens show for `N#Cc1nc(-c2ccc(COc3ccc(Cl)cc3)o2)oc1N1CCOCC1`?
GIRK2 act: inactive

How did Cn1cc(C2=C(c3cn(CCCO)c4ccccc34)C(=O)NC2=O)c2ccccc21 do in these assays?
GIRK2 act: inactive

What do the screens show for `COc1cccc(NC(=O)Nc2ccc3c(c2)CCCN3S(=O)(=O)c2ccccc2)c1OC`?
GIRK2 act: inactive
